Source: PubChem BioAssay (National Center for Advancing Translational Sciences (NCATS))
A647 autofl: A647 region autofluorescence | Compound fluorescence, A647 channel (570/671 nm), Tris buffer | max dye-equivalent concentration, M | 59,000 tested, under 10 active | AID 592; active means above 1 µM dye equivalent; inconclusive means 0.1 to 1 µM; inactive means 0.1 µM or less;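 also: values scaled relative to a standard on each plate; highest value over a series up to 38 µM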
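Tris 100 mM pH 8.0; cpd + A647 stds pin-transferred; 15 min RT; CCD imager, ex 570/em 671. Output = A647-equivalent conc. per cpd conc.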
Resorufin fluor: compound fluoresces in the resorufin spectral region | Compound fluorescence, resorufin region 547/598 nm, buffer; hits give high values | max dye-equivalent concentration, M | actives 0.04% (n = 59,000); active = above 10 nM dye equivalent; inconclusive = 1 to 10 nM; inactive = 1 nM or less; a few of its hits are not listed in these tables; also: highest value over a series up to 38 µM
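Intrinsic fluorescence profiled in the resorufin window (ex 547 nm, em 598 nm) after 15 min at room temperature in pH 8.0 Tris buffer (100 mM); responses normalized against a six-point resorufin standard series as dye-equivalent concentration.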
A488 fluor: A488 region autofluorescence | compound autofluorescence, A488 spectral region, dye equivalency; hits give high values | max dye equivalency, M | actives 0.1% (n = 59,000); active = above 10 nM dye equivalent; inconclusive = 1 to 10 nM; inactive = 1 nM or less; about half of its hits are not listed in these tables;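 also: highest value over a series up to 38 µM; compound alone in buffer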
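Intrinsic compound fluorescence is measured in 100 mM Tris buffer at pH 8.0 following 15 min incubation at room temperature. Intensities at 480 nm excitation/540 nm emission are calibrated to an on-plate A488 concentration series, giving dye-equivalent concentrations.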
AID923: qHTS Assay for Allosteric/Competitive Inhibitors of Caspase-1: Spectroscopic Profiling in AFC Spectral Region; compound fluorescence, AFC spectral region (405/520 nm); almost no hit is shown here; Potency, µM (highest dose often 57.5 µM), for inactives: at the highest dose fluorescence increase, most hits filed as activators; actives 1.1% (n = 75,000); active = well fitted activation curve with a large enough effect; inconclusive = small, poorly fitted or top-dose-only effect;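 also: potency is read from the fitted curve at half-maximal effect; 0% is about no effect; scaled to a free AFC standard on each plate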
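Compound autofluorescence profiled at 405 nm ex/520 nm em during kinetic caspase 1 run (50 nM enzyme, 5 uM Ac-WEHD-AFC, HEPES pH 7.5, 10 mM DTT). Titration up to 57 uM; baseline from regression intercept, normalized to AFC standard curve.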
TSHR agonist: TSH receptor (human) agonism; HEK293-CNG-TSHR cells (CNG channel as cAMP sensor), membrane potential dye, cAMP; Potency, µM (doses to about 57.1 µM), for inactives: top-dose activation, actives largely listed as activators; P16473; actives 0.48% (n = 73,000); active = well fitted activation curve of enough size with the parental cells flat; inconclusive = any curve in the parental cells; inactive = parental cells flat and receptor cells flat or falling; also: potency is read from the fitted curve at half-maximal effect; % of control where 0% means no effect; weak receptor curves with flat parental cells got no call and are not listed
Target sequence (P16473 whole entry, looked up): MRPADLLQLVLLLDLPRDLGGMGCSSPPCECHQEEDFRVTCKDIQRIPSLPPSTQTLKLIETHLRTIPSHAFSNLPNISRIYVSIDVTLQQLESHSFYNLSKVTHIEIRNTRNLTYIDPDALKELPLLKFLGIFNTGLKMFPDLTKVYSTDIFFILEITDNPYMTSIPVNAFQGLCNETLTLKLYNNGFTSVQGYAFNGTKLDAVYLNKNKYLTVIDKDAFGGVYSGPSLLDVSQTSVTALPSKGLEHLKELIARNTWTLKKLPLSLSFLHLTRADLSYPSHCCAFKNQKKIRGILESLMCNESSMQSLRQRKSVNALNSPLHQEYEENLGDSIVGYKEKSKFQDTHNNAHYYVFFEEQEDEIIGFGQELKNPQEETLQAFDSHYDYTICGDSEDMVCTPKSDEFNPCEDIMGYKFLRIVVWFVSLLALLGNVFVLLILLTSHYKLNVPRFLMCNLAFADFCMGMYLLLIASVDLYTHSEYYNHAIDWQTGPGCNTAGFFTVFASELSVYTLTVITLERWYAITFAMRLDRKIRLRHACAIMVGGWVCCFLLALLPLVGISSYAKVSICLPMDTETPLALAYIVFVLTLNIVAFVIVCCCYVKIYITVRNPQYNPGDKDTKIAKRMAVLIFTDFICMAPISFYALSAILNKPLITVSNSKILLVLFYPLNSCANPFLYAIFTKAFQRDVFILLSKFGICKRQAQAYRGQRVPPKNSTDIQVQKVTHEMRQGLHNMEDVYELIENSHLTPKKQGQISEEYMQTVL
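HEK 293 cells stably expressing TSHR and a modified CNG channel, with CNG-only parental cells as counterscreen, were preloaded 60 min at room temperature with membrane potential dye containing 100 uM RO 20-1724. Compound exposure was 30 min, and depolarization was read as fluorescence at 590 nm.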
* hit, by the source's call; i = inactive; ? = inconclusive; · = not tested or not shown; [ ] = another dose, or the depositor's remark. An excerpt; rates above refer to the full screens.

Results follow in this order: A647 autofl	Resorufin fluor	A488 fluor	AID923	TSHR agonist
> O=C(Nc1c(C(=O)N2CCCCC2)cnn1-c1ccccc1)c1ccccc1
    ·	·	·	-2.1%	3.0%
> COc1cc(C(=O)N2CCN(C(=O)COc3ccc4ccccc4c3)CC2)cc(OC)c1OC
    ·	·	·	-0.6%	9.0%
> c1ccc(Cc2nc(-c3ccccn3)no2)cc1
    ·	·	·	0.9%	-9.6%[11.4 µM]
> CCC1SC2=NCCN2C1(O)c1ccc(Cl)cc1 (stereo not given)
    4e-08	i	i	4.9%	19.4%
> COC(=O)CN1C(=O)C(O)(CC(=O)c2ccc(Cl)cc2)c2ccccc21 (stereo not given)
    ·	·	·	-0.8%	-2.6%
> O=C(O)c1ccc(NC(=O)C2C3CCC(C3)C2C(=O)O)cc1 (stereo not given)
    ·	·	·	-0.3%	-0.2%
> C[C@]1(C(=O)NCCN2CCOCC2)C=C[C@@H](Cc2ccccc2)N1C(=O)c1ccccc1
    ·	·	·	-1.3%	15.0%
> CN1CCN(Cc2ccc(OCc3ccccc3)cc2)CC1
    ·	·	·	0.6%	13.1%
> COc1cc2[nH]c(=S)n(CCCN3CCOCC3)c(=O)c2cc1OC
    1e-09	i	i	-0.5%	6.6%
> COc1ccccc1N1CCN(Cc2cccc(OC)c2OC)CC1
    ·	·	·	2.6%	19.0%[11.4 µM]
> COCCn1c(=O)c(CCc2ccccc2)nc2cnc(Oc3ccccc3)nc21
    2.42e-08	i	i	5.0%	?
> CC(C)C(c1nnnn1Cc1cccs1)N1CCN(C2CCCC2)CC1 (stereo not given)
    6.3e-09	i	i	-2.0%	?
> CC1CCN(C(=O)CN2C(=O)C(=O)c3ccccc32)CC1
    ·	·	·	-2.0%	-9.2%
> CN(C)Cc1ccccc1-c1cncnc1NCc1cccnc1
    4.4e-09	i	i	-0.4%	5.3%
> Cc1cc(C)n(C2=NS(=O)(=O)c3ccccc32)n1
    4.76e-08	i	i	-0.9%	-9.4%
> Cc1ccc(=O)n(C(C(=O)NCc2ccco2)C(=O)c2ccc(F)cc2)c1 (stereo not given)
    3.55e-08	i	i	-0.4%	8.4%
> Cc1ccc(CNC(=O)CCc2c(C)nc3ncnn3c2C)cc1
    3.44e-08	i	i	2.9%	2.6%[11.4 µM]
> CCOC(=O)c1cnc(-n2nc(C)cc2C)nc1NC(C)c1ccccc1 (stereo not given)
    4.66e-08	i	i	-0.8%	?
> COc1cc(/C=N/n2c(SC)nnc(C(C)(C)C)c2=O)ccc1O
    ·	·	·	1.8%	-0.5%
> CCC(=O)NC(Nc1cccc(C)n1)(C(F)(F)F)C(F)(F)F
    5.8e-09	i	i	1.5%	2.9%
> COCCn1c(=NC(=O)CSCC(=O)NC2CCCCC2)sc2cc(OC)ccc21
    2.9e-08	i	i	-2.6%	?
> CCN1C(=O)CC(C(=O)O)SC1=Nc1ccc(OC)cc1 (stereo not given)
    1e-09	i	i	0.0%	3.4%
> O=C(CN1C(=O)CSc2ncccc21)N1CCOCC1
    ·	·	·	-3.1%	0.7%
> CNc1ccccc1C(C)(C)c1cc(-c2ccco2)n[nH]1
    2.5e-09	i	i	8.6%	·
> CCOC(=O)c1c(C)n(C(=O)c2ccco2)c(=O)n1C(=O)c1ccco1
    3e-09	i	i	1.3%	?
> O[C@]1(c2ccccc2)c2ccccc2NC2=NCCN21
    1.76e-08	i	i	0.4%[11.5 µM]	·
> CCn1c(SCC(=O)NCc2ccc(F)cc2)nc2c(c1=O)SC(C)C2 (stereo not given)
    ·	·	·	-0.1%	?
> C=CCN(c1ccccc1)S(=O)(=O)c1ccc2c(c1)oc(=O)n2C
    ·	·	·	-1.7%	13.7%
> N=c1n(CC(=O)O)c2ccccc2n1Cc1ccccc1Cl
    1e-09	i	i	-0.3%	5.2%
> CC(C)Cn1c(=O)c(C(=O)Nc2ccncc2)c(O)c2ccccc21
    2.7e-09	i	i	0.6%	21.2%
> CCc1nnc(NC(=O)CSc2nnc(COc3cccc(C)c3)o2)s1
    1e-09	i	i	3.5%	0.0%
> CCOc1ccc(-c2nnn(CC(=O)NCc3ccco3)n2)cc1
    1e-09	i	i	1.7%	3.5%
> CCSc1nc(N)c2c3c(sc2n1)CN(C)CC3
    1e-09	i	i	1.3%	25.0%
> Cc1cc(C(=O)O)cc(S(=O)(=O)N2CCOCC2)c1C
    7.98e-08	i	i	-0.3%	-1.9%
> COc1ccccc1N1CCN(C(=O)c2cc3n(n2)C(C(F)(F)F)CC(c2ccco2)N3)CC1 (stereo not given)
    1e-09	i	i	-0.8%	-7.0%
> CC(C)(C)c1ccc(C(=O)CCCSC2=C(C#N)C(c3ccco3)C3=C(CCCC3=O)N2)cc1 (stereo not given)
    1e-09	i	i	2.4%	-8.2%
> O=C(CSc1nnc(-c2ccncc2)o1)Oc1ccccc1
    2.84e-08	i	i	2.0%	3.3%
> O=C(Cc1cccs1)Nc1ccccc1C(=O)O
    9e-09	i	i	0.6%	9.0%
> COC(=O)C1=C(C)NC(C)=C(C(=O)OC(C)C)[C@H]1c1cccc2nonc12
    2.7e-09	i	i	-1.5%[25.7 µM]	-12.9%[25.6 µM]
> C=CCn1c(SCc2c(C)noc2C)nc2cc(C(=O)O)ccc2c1=O
    3.75e-08	i	i	0.5%	23.1%
> O=C(CCn1nnc(-c2cccs2)n1)N1CCc2ccccc2C1
    1.3e-09	i	i	0.0%	?
> COc1ccc(C(c2sc3nc(C)nn3c2O)N2CCc3ccccc3C2)cc1 (stereo not given)
    ·	·	·	4.1%	?
> CCCc1nc2ccccc2c(=O)n1NC(=O)c1c(O)c2cccc3c2n(c1=O)CCC3
    6.6e-09	i	i	-2.2%	8.5%
> COc1c(O[C@H]2O[C@@H](CO)[C@@H](O)[C@@H](O)[C@@H]2O)cc2c(c1OC)-c1ccc(SC)c(=O)cc1[C@H](NC(C)=O)CC2
    3.58e-08	i	i	-1.0%[25.7 µM]	-14.6%[25.6 µM]
> CCC(C)NC(=O)c1ccccc1NC(=O)C(C)N(c1ccccc1)S(C)(=O)=O (stereo not given)
    1.09e-08	i	i	0.4%	20.9%
> CCOC(=O)C1CCN(C(=O)COc2cc(C)c(Br)cc2C)CC1
    2.65e-08	i	i	-0.4%	?
> COc1cc2c(cc1OC)C(C(=O)N1CCCCC1)C(c1ccccc1F)N(C)C2=O (stereo not given)
    1.28e-08	i	i	-1.5%	?
> c1cncc(CNc2ccnc(-c3ccc4c(c3)OCO4)n2)c1
    1e-09	i	i	0.7%	7.8%
> CCN(CC)c1ccc(CN(C(=O)c2ccco2)C2CCS(=O)(=O)C2)cc1 (stereo not given)
    1.57e-08	i	i	-0.1%	21.8%
> CC(NC(=O)c1cc(-c2cccs2)on1)c1ccccc1 (stereo not given)
    2.83e-08	i	i	0.8%	1.9%
> CC(C)C(C(=O)NC(C)(C)C)N1C(=O)c2ccccc2C1=O (stereo not given)
    ·	·	·	3.7%	10.4%
> Cc1ccc(Cn2nc(C)c(NC(=O)c3noc4c3CCCCC4)c2C)cc1
    1.89e-08	i	i	-2.2%	17.4%
> O=C(CCNc1n[nH]c(=O)[nH]c1=O)N1CCCCC1
    4.8e-09	i	i	-0.9%	-3.6%[11.4 µM]
> O=C(Nc1ccc2c(c1)CCC2)C1CCCN(c2ncccn2)C1 (stereo not given)
    2.2e-09	i	i	0.3%	?
> CC1(C)Cc2nc(N)c(=O)sc2C1
    2.6e-09	i	i	0.4%	-3.7%
> O=C(CCCOc1ccc(Cl)cc1)N1CCCCC1
    ·	·	·	0.2%	22.6%
> Cn1c(=O)c2c(nc(NCc3ccccc3)n2C)n(C)c1=O
    ·	·	·	-0.2%	?
> Nc1ccc(N=Nc2ccc(-c3ccc(O)cc3)cc2)c2ccc(S(=O)(=O)O)cc12
    8.5e-09	i	i	-0.5%[11.5 µM]	-3.0%[11.4 µM]
> CCOC(=O)C1=C(C)NC(=O)C(C#N)C1c1ccco1 (stereo not given)
    2.79e-08	i	i	-0.1%	1.6%
> CCOc1ccc(NC(=O)C2CC(=O)N3CCCN=C3S2)cc1 (stereo not given)
    5.8e-09	i	i	-0.2%	-5.2%

Next part:
Results follow in this order: A647 autofl	Resorufin fluor	A488 fluor	AID923	TSHR agonist
> O=S(=O)(c1ccc(N2CCCC2c2nc3ccccc3s2)nc1)N1CCOCC1 (stereo not given)
    1e-09	i	i	2.9%	2.9%
> CC1(C)CC(=O)C(CC2=C(O)CC(C)(C)CC2=O)C(=O)C1
    3.11e-08	i	i	1.5%	5.1%
> COc1cccc(/C(O)=C2/C(=O)C(=O)N(CCCN(C)C)C2c2cccc(Cl)c2)c1 (stereo not given)
    1e-09	i	i	·	·
> O=C(O)CNC(=O)c1ccc2c(c1)OCCO2
    3.3e-09	i	i	-0.1%	-1.6%
> CCc1ccccc1Nc1ccc(C(=O)O)cc1N
    1.35e-08	i	i	-0.8%	0.8%[11.4 µM]
> COC(=O)c1cccc(N2C(=O)c3cccnc3C2=O)c1
    2.3e-09	i	i	2.1%	2.5%
> Cc1ccc(S(=O)(=O)n2nc(C)c(Br)c2C)c(C)c1C
    2.28e-08	i	i	-0.7%	?
> O=C(CC1NCCNC1=O)Nc1ccc(Oc2ccccc2)cc1 (stereo not given)
    1e-09	i	i	1.6%	0.3%
> C/C(=N/S(=O)(=O)c1ccc(Cl)c(Cl)c1)OCC(C)(C)C
    1e-09	i	i	-0.7%[11.5 µM]	8.7%[11.4 µM]
> COc1ccc(OC)c(NC(=O)CSCc2cnn(-c3ccccc3)c2-n2cccc2)c1
    1.79e-08	i	i	-0.1%	?
> COc1cccc(S(=O)(=O)NCc2ccc(C(=O)NCC3CCCO3)cc2)c1 (stereo not given)
    1.99e-08	i	i	2.7%	12.2%
> CCN1CCn2c1nc(N1CCOCC1)nc2=O
    3.51e-08	i	i	-1.0%	-3.0%
> O=C(CSc1nnc(-c2cnccn2)n1Cc1ccco1)c1ccccc1
    1.8e-09	i	i	0.6%	·
> CCOC(=O)C(OC(=O)c1sc(=S)n(C)c1C)C(C)=O (stereo not given)
    3.29e-08	i	i	·	·
> Cc1cccc(-c2nc(CS(=O)CC(=O)N3CCN(C)CC3)c(C)o2)c1 (stereo not given)
    ·	·	·	-1.5%	-2.6%
> N[C@H](C(=O)O)[C@@H](O)c1cnc[nH]1
    2.7e-09	i	i	-0.7%[11.5 µM]	-4.1%[11.4 µM]
> Cc1cc(NC2CCCCC2)nc(N2CCOCC2)n1
    ·	·	·	4.8%	16.7%
> Cc1nc(C)c(C(=O)OCC(=O)N2CCN(c3ccccc3)CC2)s1
    3.9e-09	i	i	-1.2%	5.3%
> Cc1cc(C)c2cc(CN(Cc3ccco3)C(=O)NCc3ccccc3)c(=O)[nH]c2c1
    1e-09	i	i	-0.9%	?
> CN1C[C@H](c2ccccc2)C(O)([C@]2(c3ccccc3)CN(C)C[C@@H](c3ccccc3)C2=O)[C@H](c2ccccc2)C1 (stereo not given in full)
    5e-09	i	i	-1.9%[11.5 µM]	0.0%[11.4 µM]
> COc1ccc(C(=O)Nc2nc3ccccc3[nH]2)cc1OC
    3.8e-09	i	i	1.1%	23.0%
> COC(=O)C(C)Sc1nnc(Cc2cc(=O)[nH]c(=O)[nH]2)n1-c1cc(C)ccc1C (stereo not given)
    ·	·	·	-1.4%	-5.3%

Fetched one by one from the list above (2):
Results follow in this order: A647 autofl	Resorufin fluor	A488 fluor	AID923	TSHR agonist
> Cc1cccc(-c2nc(CS(=O)CC(=O)N3CCN(C)CC3)c(C)o2)c1 (stereo not given)
    ·	·	·	-1.5%	-2.6%
> COc1ccc(OC)c(NC(=O)CSCc2cnn(-c3ccccc3)c2-n2cccc2)c1
    1.79e-08	i	i	-0.1%	?
